D2 ag = Beta-Arrestin HTS for Positive Allosteric Modulators of the Human D2 Dopamine Receptor: Agonists | DiscoveRx PathHunter D2 beta-arrestin, luminescence, 90 min; 100% = 57 uM dopamine signal | 360,000 compounds, 0.084% hits | activation, % (concentration not given with the values) | D(2) dopamine receptor (Homo sapiens), P14416; in the data active = activation above about 40%; inconclusive = about 15% to 40%; inactive = below about 15%; further: the text of the record calls up to 30% inactive
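Agonist mode: compounds alone added to overnight-plated D2 PathHunter cells for 90 min at 37 C, with 57 uM final dopamine (EC100) defining full response. Beta-arrestin recruitment detected by chemiluminescent reagent, read after 1 h at ambient temperature.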
Six1-Eya2 blk = qHTS Assay for Inhibitors of the Six1/Eya2 Interaction. Homeobox protein SIX1 (Homo sapiens) + Protein phosphatase EYA2 (Homo sapiens), …. AlphaScreen GST-Six1/His-Eya2 binding, biochemical; hits give low values; control for the full effect not named in the record. activity change, % (concentration not given with the values). 360,000 compounds, 0.56% hits. AID 651725, 2012; in the data active = activity change below about -65%; inconclusive = about -30% to -65%; inactive = above about -30%; further: on the % scale 0 is the no-effect control and ±100 the full control effect
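AlphaScreen luminescence read after one hour at 37 °C in darkness. Pin-transferred compounds met GST-Six1 and His-Eya2 protein (5X stock 250 nM/500 nM) plus glutathione donor and Ni-chelate acceptor beads (5X, 50 ug/mL).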
D2 potentiator = Beta-Arrestin HTS for Positive Allosteric Modulators of the Human D2 Dopamine Receptor: Potentiators; D(2) dopamine receptor (Homo sapiens), P14416; DiscoveRx D2 beta-arrestin cells, luminescence, 90 min; 100% = 57 uM dopamine signal; potentiation, % (no concentration beside the values); 360,000 compounds, 0.23% hits; active = potentiation of 50% or more; inconclusive = 30% to 50%; inactive = 30% or less;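 further: compound concentration not given in the record; tested on top of an EC20 dose of dopamine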
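PathHunter beta-arrestin assay in DiscoveRx D2 cells. Compounds were added with an EC20 of dopamine (50 nM final) for 90 min at 37 deg C. Luminescence was read 1 h after detection reagent, with 57 uM dopamine as the EC100 control.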
PINK1 expr mod = A Quantitative High throughput Screen to Identify Chemical Modulators of PINK1 Expression; PINK1 immunofluorescence, high-content cytometry, 24 h; Potency, µM (doses to about 76.6 µM), without a hit: top-dose activation (PINK1 increase), usual class: activators; 410,000 compounds, 0.2% hits; AID 624263, 2012; active = well fitted activation curve with a large enough effect; inconclusive = small, poorly fitted or top-dose-only effect; inactive = flat fitted curve, though single readings scatter; cell line not stated here;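 further: potency means the concentration at half of the fitted maximal effect; % of control where 0% means no effect; nearly all actives have a fitted effect of over 65% in size; a mitochondrial uncoupler was the plate control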
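Readout is PINK1 immunofluorescence, quantified alongside mitochondrial, cell and nuclear markers by laser-scanning microplate cytometry. Cells from a stable line were exposed to compound titrations (5 concentrations) for 24 hours, with CCCP controls.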
TRPV1 PAM = HTS Assay for Compounds that Act as Potentiators of the Vanilloid Receptor 1 | Transient receptor potential cation channel subfamily V member 1 (Homo sapiens), Q8NER1 | TRPV1-expressing cells, Fluo-8 calcium influx, capsaicin EC20 potentiation; host cell line not named in the record; control for the full effect not named in the record | AID 540277, 2011 | 320,000 compounds, 0.02% hits | potentiation, % at 8.33 µM; active means potentiation above 80%; inconclusive means 30% to 80%; inactive means below 30%; further: 0% is about no effect
Target sequence (Q8NER1 whole entry, looked up): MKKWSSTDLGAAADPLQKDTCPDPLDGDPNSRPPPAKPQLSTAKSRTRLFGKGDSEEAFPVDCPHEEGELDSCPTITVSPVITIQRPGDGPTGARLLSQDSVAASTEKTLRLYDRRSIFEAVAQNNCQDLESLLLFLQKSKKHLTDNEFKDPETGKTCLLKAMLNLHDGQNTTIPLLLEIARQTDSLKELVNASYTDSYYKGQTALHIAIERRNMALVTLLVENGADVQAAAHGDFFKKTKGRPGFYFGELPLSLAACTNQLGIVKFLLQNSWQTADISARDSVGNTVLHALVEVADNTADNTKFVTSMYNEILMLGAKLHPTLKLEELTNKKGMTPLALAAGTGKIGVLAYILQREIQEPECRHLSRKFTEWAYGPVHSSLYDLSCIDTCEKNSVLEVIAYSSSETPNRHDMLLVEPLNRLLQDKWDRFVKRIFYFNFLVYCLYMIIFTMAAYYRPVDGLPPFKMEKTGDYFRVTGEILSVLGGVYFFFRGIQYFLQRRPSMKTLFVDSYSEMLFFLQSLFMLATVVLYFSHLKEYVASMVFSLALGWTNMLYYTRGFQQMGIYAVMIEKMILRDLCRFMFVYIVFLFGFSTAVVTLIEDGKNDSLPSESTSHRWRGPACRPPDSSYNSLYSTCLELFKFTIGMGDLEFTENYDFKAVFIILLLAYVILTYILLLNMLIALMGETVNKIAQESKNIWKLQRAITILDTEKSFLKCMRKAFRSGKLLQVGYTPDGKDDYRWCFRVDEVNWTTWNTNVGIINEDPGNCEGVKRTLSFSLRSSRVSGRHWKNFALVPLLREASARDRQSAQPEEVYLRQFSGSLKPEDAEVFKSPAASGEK
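TRPV1-expressing cells were cultured overnight at 35.5C and loaded with Fluo-8 calcium dye for 40 to 90 min at room temperature. After a 10 s baseline, compound was added and calcium influx was read kinetically for 3 min (ex 480/em 520 nm).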
CtBP-E1A blk = qHTS Assay for Inhibitors of the CtBP/E1A Interaction; CtBP / adenovirus E1A interaction (AlphaScreen); AlphaScreen GST-E1A/His-CtBP binding, 1536-well; hits give low values; control for the full effect not named in the record; activity change, % (test concentration not listed); 340,000 compounds, 0.49% hits; AID 651724, 2012; in the data active means activity change below about -65%; inconclusive means about -30% to -65%; inactive means above about -30%; further: on the % scale 0 is the no-effect control and ±100 the full control effect
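In 5 uL wells, 23 nL compound meets equimolar GST-E1A and His-CtBP (5X stock 125 nM each) for 2 h, 37 °C. Beads (5X, 50 ug/mL) then 1 h, 37 °C, dark.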
Sfp PPTase inh = qHTS Assay for Inhibitors of Bacillus subtilis Sfp phosphopantetheinyl transferase (PPTase) | Potency, µM, inactives show max response, negative = inhibition, actives largely listed as inhibitors | Biochemical Sfp PPTase activity, qHTS | 310,000 compounds, 3.5% hits; active means well fitted inhibition curve with a large enough effect; inconclusive means small, poorly fitted or top-dose-only effect, or another doubt; inactive means no such curve, though single readings can be large or run the other way;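 further: the enzyme is Sfp with the accession as filed and its product quenches rhodamine fluorescence; potency means the concentration at half of the fitted maximal effect; 0% = enzyme reaction without inhibitor and -100% = no enzyme wells; top concentration of the series not given in the record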
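Fluorescence-quenching assay: 15 nM Sfp-PPTase preincubated 15 min at room temperature with compound, then 5 uM rhodamine-CoA and 12.5 uM BHQ-2-labelled YbbR peptide added. Fluorescence (ex 525/em 598 nm) read at start and after 30 min; difference gives rate.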
Starred values were filed as active, the others as inactive; u = inconclusive; x = not tested or not shown; & = joins results of further samples; [ ] = remark or other dose.

SMILES	D2 ag	Six1-Eya2 blk	D2 potentiator	PINK1 expr mod	TRPV1 PAM	CtBP-E1A blk	Sfp PPTase inh
CCN1C(=O)/C(=C/c2cn(C)nc2C)SC1=S	0.2	-7	-2	1.2%[38.3 µM]	-9	-3	-7%
O=C(NC1CCS(=O)(=O)C1)/C(=C\c1ccccc1)NC(=O)c1ccccc1 (stereo unspecified)	-0.7	4	-10	-0.5%	19	10	14%
Cc1ccc(S(=O)(=O)NC(C)(C)CSc2nnc(Nc3ccccc3)s2)cc1	1.3	-8	5	2.0%	-1	-5	12%
Cc1cccc(C)c1NC(=O)CN1CCN(C(=O)CNC(=O)c2ccc(-c3ccccc3)cc2)CC1	-1.8	2	-15	3.6%	x	-7	x
Cc1ccc(Cl)cc1-n1ncc2c(NNC(=O)c3ccco3)ncnc21	-0.3	-4	-3	3.0%	3	4	19%
Cc1cccc(OC(C)C(=O)N2CCCN(C)CC2)c1C (stereo unspecified)	-2.9	2	-16	-1.2%	8	5	10%
CN(CC(=O)Nc1ccccc1C(F)(F)F)C(=O)c1ccc(-c2ccc(Cl)cc2)o1	2.2	-5	12	-1.5%	15	0	x
COc1ccc(S(=O)(=O)N(C)C)cc1NCC(=O)Nc1ccc(F)cc1F	-4.8	39	-11	-0.8%	-6	6	-6%
CC(=O)Nc1ccc(S(=O)(=O)Nc2nc(CN3CCOCC3)nc3sc4c(c23)CCCC4)cc1	0.6	-13	0	-1.4%	16	-1	11%
CCOC(=O)NCCOC(=O)Nc1ccc(Cl)cc1	-0.9	1	-4	-0.6%	-12	x	4%
COC(=O)c1ccc(COC(=O)c2cccn2C)o1	0.7	-9	2	-0.9%	7	-5	21%
c1coc(-c2cc3nc(NCc4ccc5c(c4)OCO5)ccn3n2)c1	4.9	-27	-12	1.6%	x	u	x
COCCCNC(=O)C1CCC(CNS(=O)(=O)c2ccc3c(c2)N(C(C)=O)CCO3)CC1 (stereo unspecified)	-6.5	1	-8	-0.8%	4	x	8%
CC1CCCN(CCCOc2ccc(Cl)cc2Br)C1 (stereo unspecified)	-2.8	3	-40	-0.8%	5	3	-26%
CCn1nc(C)cc1C(=O)N1CCc2c([nH]c3ccccc23)C1c1cc(F)ccc1F (stereo unspecified)	-2.3	-7	6	13%	10	-9	-12%
O=Cc1c[nH]c2ccc(C(=O)c3ccccc3)cc12	1.6	u	-1	4.2%	5	-15	7%
Cc1ccccc1S(=O)(=O)Cc1ccc(C(=O)NCCN(CC(C)C)CC(C)C)o1	4.6	-15	-16	0.8%	9	-24	4%
CC(C)n1nnnc1C1c2ccccc2C(=O)N1CCCN1CCOCC1 (stereo unspecified)	x	0	x	-0.7%	x	6	x
O=c1c(C(c2ccccc2)c2c(O)nc3n(c2=O)CCCS3)c(O)nc2n1CCCS2	-0.5	7	-15	0.5%	12	2	-6%
CC(C)(C)OC(=O)N1CCC(C(=O)Nc2ccc(C(=O)NCCc3ccccc3)cc2)CC1	-0.9	6	-14	6.0%	x	-10	x
CCOc1ccc(C(C)=O)cc1CSC(=N)N	-3.6	5	-8	-0.5%	14	8	13%
CCOc1ccccc1CN1CCC(CO)(CCOc2ccccc2)CC1	-3.8	11	-16	-1.7%	9	5	-11%
Cc1ccc(C)c(NC(=O)Cn2nnc(-c3ccc(N4CCOCC4)cc3)n2)c1	-2.9	13	-1	24%	4	x	10%
O=C(C[N+]12CC[N+](CC(=O)c3ccc(F)cc3)(CC1)CC2)c1ccc(F)cc1	-1.8	11	-6	-0.5%	-21	x	2%
CC(C)C(=O)Nc1ccc(NC(=O)c2cccc(F)c2)cn1	-1.0	-2	-11	-1.0%	9	-5	1%
O=C(CSc1cn(CC(=O)N2CCOCC2)c2ccccc12)N1CCOCC1	-2.4	3	0	0.3%	2	1	8%
CCOCCc1c(O)nc(SCC(=O)NCc2ccco2)[nH]c1=O	1.3	-1	-2	1.3%	10	-9	3%
CC(=O)Oc1cccc(C(=O)Nc2c[nH]c(=O)[nH]c2=O)c1	-1.1	3	-5	1.5%	-6	x	4%
COCC(=O)Nc1cc(OC)c(Cl)cc1OC	-2.2	7	9	0.9%	-31	4	14%
COc1ccc(C(C(=O)NC2CCCC2)N(CCCO)C(=O)Cn2nnc(-c3ccc(C)o3)n2)cc1 (stereo unspecified)	7.4	-2	-5	2.7%	-4	4	2%

Whole records, quoted from the list. Screens in order: D2 ag | Six1-Eya2 blk | D2 potentiator | PINK1 expr mod | TRPV1 PAM | CtBP-E1A blk | Sfp PPTase inh
Cc1ccc(Cl)cc1-n1ncc2c(NNC(=O)c3ccco3)ncnc21 is listed as -0.3 | -4 | -3 | 3.0% | 3 | 4 | 19%
CC(C)(C)OC(=O)N1CCC(C(=O)Nc2ccc(C(=O)NCCc3ccccc3)cc2)CC1 is listed as -0.9 | 6 | -14 | 6.0% | x | -10 | x

Later entries:
SMILES	D2 ag	Six1-Eya2 blk	D2 potentiator	PINK1 expr mod	TRPV1 PAM	CtBP-E1A blk	Sfp PPTase inh
N#CCC1c2ccccc2CCN1C(=O)Nc1ccc(C(F)(F)F)cc1 (stereo unspecified)	0.2	17	-16	22%[38.3 µM]	12	50	7%
O=S1(=O)CCC(NC(=S)Nc2ccc(Cl)cc2)C1 (stereo unspecified)	-1.0	-4	-21	0.1%	-18	3	-3%
O=C(CN1C(=O)c2ccccc2S1(=O)=O)NCCSCc1c(F)cccc1Cl	-3.3	-4	-5	0.7%	-4	3	3%
CCCCN(C(=O)c1ccc2ccccc2c1)c1c(N)n(CCCC)c(=O)[nH]c1=O	-0.3	-1	10	14%	8	x	x
COc1ccc([C@H]2CC(=O)C=C(c3cccc(OC(F)(F)F)c3)C2)cc1	-5.5	4	-4	7.1%	1	16	x
CCC(=O)N1CCc2cc(Br)cc(S(=O)(=O)N3CCC(C(=O)NC(C)C)CC3)c21	-1.4	-3	-4	-1.2%	1	-1	7%
CCCN1CCc2nc(SCC(=O)Nc3ccc(C)c(Cl)c3)[nH]c(=O)c2C1	-2.6	0	-11	0.7%&0.3%	11	-5	0%
O=C(CSc1nc2ccccc2[nH]1)NCCc1ccc(Cl)cc1	-4.1	13	13	0.6%	1	21	10%
CC(=O)c1ccc(NC(=O)CSc2nc(=O)n3cccc(C)c3n2)cc1	2.8	-7	-2	1.0%	-6	2	x
CCCc1cc(=O)oc2c(C)c(OCC(=O)N3CCC[C@@H]3C(=O)O)ccc12	-4.8	-4	-3	-0.1%	-3	3	11%
CC(NC(=O)CSc1nc2sc3c(c2c(=O)n1-c1ccccc1)CCCC3)c1ccccc1 (stereo unspecified)	-1.8	-2	-6	x	-11	11	12%
O=C(CCN1CCN(S(=O)(=O)c2ccc(Br)cc2)CC1)Nc1ccccc1F	-3.3	4	-11	2.6%	-6	-7	17%
CCOC(=O)N1CCC(N2C(=O)c3ccccc3C2=O)CC1	-4.9	1	-1	0.4%	1	10	5%
N#CCC(=O)N/N=C/c1c2ccccc2cc2ccccc12	1.6	0	-23	1.9%	-2	-6	-9%
Cc1ccc(N2C(=N)/C(=C3/Nc4ccccc4S3)C(c3ccccc3)C2=O)cc1 (stereo unspecified)	-3.1	-2	-25	14%	-17	-1	-9%
COc1ccc(N2CCN(c3ccc(Cl)nn3)CC2)cc1	-0.5	5	-6	1.6%	-45	x	1%
COc1ccc2[nH]c(C)c(CCNC(=S)Nc3cccc(C)c3C)c2c1	-5.5	u	-1	-1.1%	-4	-3	29%
CCOC(=O)CSc1nc2c(sc(=S)n2-c2ccc(OCC)cc2)c(=O)[nH]1	7.2	-8	6	-0.4%	20	-12	-2%
CCc1noc(N)c1C(=O)Nc1ccc(Cl)cc1	0.7	1	-21	-1.0%	7	3	6%
Cc1cccc(N2CCN(S(=O)(=O)c3ccc(-c4ccc(=O)[nH]n4)o3)CC2)c1C	-2.7	1	-9	0.6%	-9	-10	19%
COc1ccccc1-c1ccc(Nc2ccc(C(=O)N3CCOCC3)cc2)nn1	-3.1	-12	-17	0.1%	-16	-16	13%
CC(C)c1ccc2c(c1)C(N1CCN(C)CC1)Cc1cccnc1S2 (stereo unspecified)	-5.6	-7	-25	-0.1%	x	-3	x
COc1cc2c(cc1OC)C(CNC(=O)C=Cc1ccccc1)C2 (stereo unspecified)	-2.0	29	-11	1.4%	x	2	x
C=CCNC(=O)/C(C#N)=C/c1c(N2CC(C)OC(C)C2)nc2ccccn2c1=O (stereo unspecified)	-0.7	2	-4	-0.6%	10	0	18%
ClCCn1cnc2c(SCc3ccccc3Cl)ncnc21	5.7	12	0	-1.2%	x	10	x
CCOP(=O)(OCC)C(Nc1ccc(F)cc1)c1ccccc1 (stereo unspecified)	-1.9	-4	-6	0.5%	1	6	11%
Cc1ccc(NC(=O)CSc2nnc(-c3ccco3)o2)cc1	-4.9	21	10	1.8%	-5	27	10%
O=C1C2C3C=CC(C3)C2C(=O)N1c1cccc2ccccc12 (stereo unspecified)	8.8	3	-10	-0.2%	9	4	2%

Reformatted: four of the compounds above
C=CCNC(=O)/C(C#N)=C/c1c(N2CC(C)OC(C)C2)nc2ccccn2c1=O (stereo unspecified)
  D2 ag = -0.7
  Six1-Eya2 blk = 2
  D2 potentiator = -4
  PINK1 expr mod = -0.6%
  TRPV1 PAM = 10
  CtBP-E1A blk = 0
  Sfp PPTase inh = 18%

COc1ccc2[nH]c(C)c(CCNC(=S)Nc3cccc(C)c3C)c2c1
  D2 ag = -5.5
  Six1-Eya2 blk = u
  D2 potentiator = -1
  PINK1 expr mod = -1.1%
  TRPV1 PAM = -4
  CtBP-E1A blk = -3
  Sfp PPTase inh = 29%

CCOC(=O)CSc1nc2c(sc(=S)n2-c2ccc(OCC)cc2)c(=O)[nH]1
  D2 ag = 7.2
  Six1-Eya2 blk = -8
  D2 potentiator = 6
  PINK1 expr mod = -0.4%
  TRPV1 PAM = 20
  CtBP-E1A blk = -12
  Sfp PPTase inh = -2%

COc1ccc(N2CCN(c3ccc(Cl)nn3)CC2)cc1
  D2 ag = -0.5
  Six1-Eya2 blk = 5
  D2 potentiator = -6
  PINK1 expr mod = 1.6%
  TRPV1 PAM = -45
  CtBP-E1A blk = x
  Sfp PPTase inh = 1%

Screens: PubChem, National Center for Advancing Translational Sciences (NCATS)
